# RE007 growth inh: less growth of the S. pombe RE007 Vpr strain | AID 651644 | S. pombe RE007 Vpr strain, BacTiter-Glo ATP luminescence, 24 h; control for the full effect not named in the record | Potency, µM (titrated, usually from 92.2 µM), without a hit: at the top dose activity change, negative = less growth | actives 0.21% (n = 360,000); active = well fitted falling curve with a large enough effect; inconclusive = small, poorly fitted or top-dose-only effect; inactive = no such curve, though single readings can be large or run the other way;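 note: % is set by controls: 0 for no effect and ±100 for the full control effect; nearly all actives have a fitted effect of over 50% in size; the assay follows cell death caused by Vpr and the record does not say whether a fall means rescue or toxicity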
#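 Fission yeast strain RE007, carrying one chromosomally integrated HIV-1 vpr copy, was seeded at OD 0.01 in PMG+AL medium with 23 nL pinned compound. After 24 h at 30 °C and 99% humidity, viability was read by BacTiter-Glo luminescence.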
# StopGo reporter: FMDV 2A StopGo reporter, luciferase signal; actives 1.2% (n = 410,000); Potency, µM (series often up to 57.9 µM), for inactives: at the top dose signal change, negative = less light; AID 1159524; human cells with a luciferase reporter of 2A StopGo recoding; control for the full effect not named in the record; active = well fitted falling curve with a large enough effect; inconclusive = small, poorly fitted or top-dose-only effect; inactive = no such curve, though single readings can be large or run the other way; tested in HEK293T cells; note: % is set by controls: 0 for no effect and ±100 for the full control effect; nearly all actives have a fitted effect of over 45% in size; luciferase light after 4 h
# Cruzain inh noDet: inhibitors of Trypanosoma cruzi cruzain without detergent; purified cruzain, Z-FR-AMC fluorescence, no detergent; AID 1476; Potency, µM, for inactives: max response, negative = inhibition, most hits filed as inhibitors; actives 2.3% (n = 200,000); active = well fitted curve in the direction sought with a large enough effect; inconclusive = small, poorly fitted or top-dose-only effect, or another doubt; inactive = no such curve, though single readings can be large; an effect the other way counts as inactive or inconclusive;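 note: plate controls were enzyme without inhibitor for no effect and buffer without enzyme for full effect; nearly all actives have a fitted effect of over 40% in size; top concentration of the series not given in the record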
# Target sequence (P25779 123-467 limits assumed): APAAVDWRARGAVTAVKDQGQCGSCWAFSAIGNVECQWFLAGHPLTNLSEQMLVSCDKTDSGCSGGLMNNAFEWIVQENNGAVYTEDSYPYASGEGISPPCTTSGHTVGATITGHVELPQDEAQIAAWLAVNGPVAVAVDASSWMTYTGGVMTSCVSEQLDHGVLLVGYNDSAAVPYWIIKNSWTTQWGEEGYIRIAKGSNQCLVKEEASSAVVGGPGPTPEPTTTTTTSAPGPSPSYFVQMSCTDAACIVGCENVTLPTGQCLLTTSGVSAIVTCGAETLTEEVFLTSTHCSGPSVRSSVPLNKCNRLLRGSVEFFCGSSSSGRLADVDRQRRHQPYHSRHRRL
#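 Purified cruzain at 1.5 nM, pre-incubated 15 min with compound at room temperature in 100 mM sodium acetate pH 5.5, 5 mM DTT, 0.00005% Triton X-100. Reaction started with 2 uM Z-FR-AMC; AMC fluorescence increase over 60 s gives rate.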
# Lassa entry inh: Lassa virus entry inhibition. Lassa virus pseudotype entry inhibition, cell reporter; control for the full effect not named in the record. Potency, µM (top dose mostly 37.9 µM), for inactives: top-dose activity change, negative = inhibition, most hits filed as inhibitors. actives 1.2% (n = 300,000). AID 540256; active means well fitted inhibition curve with a large enough effect; inconclusive means small, poorly fitted or top-dose-only effect, or effect the other way; inactive means flat fitted curve, though single readings scatter; tested in HEK293 cells; note: % is set by controls: 0 for no effect and ±100 for the full control effect; nearly all actives have a fitted effect of over 50% in size; luciferase read-out
# SARS PLP yeast: inhibitors of SARS-CoV papain-like protease in yeast. Potency, µM (highest dose often 32.9 µM), for the others: at the highest dose activity, positive = growth rescue. actives 0.19% (n = 330,000). S. cerevisiae expressing SARS-CoV PLpro, growth rescue; control for the full effect not named in the record. AID 485353; note: 0% is about no effect; nearly all actives have a fitted effect of over 55% in size; growth read by luminescence after 48 h
# Cruzain Triton: inhibitors of Trypanosoma cruzi cruzain with detergent. P25779. purified cruzain, Z-FR-AMC fluorescence, 0.01% Triton. Potency, µM, for inactives: max response, negative = inhibition, hits mostly inhibitors. actives 0.43% (n = 200,000). AID 1478; active = well fitted curve in the direction sought with a large enough effect; inconclusive = small, poorly fitted or top-dose-only effect, or another doubt; inactive = no such curve, though single readings can be large; an effect the other way counts as inactive or inconclusive;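 note: plate controls were neutral wells for no effect and buffer without enzyme for full effect; nearly all actives have a fitted effect of over 40% in size; top concentration of the series not given in the record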
#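 Detergent-containing run (0.01% Triton X-100) in acetate buffer pH 5.5 with 5 mM DTT: enzyme at 1.5 nM final, 15 min compound preincubation at room temperature, then 2 uM Z-FR-AMC substrate. Activity taken as 60 s fluorescence increase at 360/450 nm.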
# NS1 function inh: inhibitors of influenza NS1 protein function | AID 2326 | Potency, µM (highest dose often 46.1 µM), inactives show at the top dose activity, positive = more growth | S. cerevisiae slowed by influenza A NS1, growth recovery by OD600 | actives 0.4% (n = 270,000); note: actives are rising curves; nearly all actives have a fitted effect of over 50% in size
#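 In this qHTS, NS1 from influenza A is expressed in budding yeast, where it slows growth. Cells are switched from glucose to 2% galactose medium (pH 6.0, -URA), treated with compound, and growth recovery is read at OD600.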
# Marburg entry inh: blocks Marburg virus binding to or entry into cells; Marburg virus pseudotyped entry inhibition, cell reporter; control for the full effect not named in the record; about a third of the inactives were read at about 46 µM; Potency, µM (top dose mostly 37.8 µM), for inactives: at the top dose activity change, negative = inhibition, most hits filed as inhibitors; actives 1.8% (n = 300,000); active = well fitted inhibition curve with a large enough effect; inconclusive = small, poorly fitted or top-dose-only effect, or effect the other way; inactive = flat fitted curve, though single readings scatter; tested in HEK293 cells; about a fifth of its hits are not listed in these tables; note: % is set by controls: 0 for no effect and ±100 for the full control effect; luciferase read-out
# * marks the source's active call; other numbers are inactive results; ? = inconclusive; / = not tested or not shown; & = joins results of further samples; [ ] = another dose, or the depositor's remark. Unless noted, calls come from the whole dose curve; as a rule, active means well fitted rising curve with a large enough effect; inconclusive means small, poorly fitted or top-dose-only effect; inactive means no such curve, though single readings can be large or run the other way. Potency is the fitted concentration of half-maximal effect.
SMILES,RE007 growth inh,StopGo reporter,Cruzain inh noDet,Lassa entry inh,SARS PLP yeast,Cruzain Triton,NS1 function inh,Marburg entry inh
CC(C)Nc1ccc(-n2nc3ccccc3[n+]2[O-])cc1,4%,-43%,/,?,0%,/,-2%,?
Cc1cccc(C)c1OC(=O)Cc1ccccc1[N+](=O)[O-],5%,-18%,/,-3%[46.1 µM],-3%,/,-7%,-1%[46.1 µM]
Cc1ccc(Cn2cccc(NC(=O)NCc3ccccc3)c2=O)cc1,10%,/,-5%,0%,0%,2.0%,19%,2%&2%
CC1C(=O)Nc2ccc(S(=O)(=O)N3CCN(c4cccc(C(F)(F)F)c4)CC3)cc2NC1=O (stereo not given),-3%,-23%,/,/,6%,/,2%,/
COc1ccc(N(CC(=O)NCc2ccccc2)C(=O)Cn2nnc(-c3ccccc3F)n2)cc1OC,-27%,33%,/,?,1%,/,0%,2%[46.1 µM]
O=C(NCCc1ccccc1)C1CCN(C(=O)N2CCOc3ccccc32)CC1,5%,-10%,/,/,-2%,/,-4%,/
Cc1ccc(NC(=O)COC(=O)c2ccnn2C)cc1,9%,/,0%,18%,-4%,2.6%,-8%,0%
O=C(O)c1ccc(N/N=C/c2cc3ccccc3nc2Cl)cc1,-26%,41%[activator],/,/,-3%,/,-44%,/
Cc1nnc(NC(=O)C2CCCCC2)s1,9%,-10%,0%,2%,-1%,5.3%,-2%,4%
CN(C)C(=O)CCc1ccc2c3c([nH]c2c1)[C@]1(CCC2CCCC2)[C@@H](C(=O)N2CCOCC2)C[C@H](CC(=O)NCc2ccco2)C(=O)N1CC3,11%,20%,/,/,2%,/,/,2%
C#CCN(CC=C)C(=O)c1ccc(OC2CCN(S(=O)(=O)N(C)C)CC2)cc1,7%,10%,/,/,-1%,/,4%,/
Cc1ccc(-c2nn(-c3ccccc3)cc2C=C2C(=O)CC(C)(C)CC2=O)cc1,3%,-75%,-24%,-1%,4%,-2.2%,12%,-22%
NC12CC3CC(C1)CC(CO)(C3)O2,-23%,2%,2%,20%,3%,1.4%,0%,1%
CCCNS(=O)(=O)c1ccc(CCC(=O)Nc2ccc3c(c2)OCO3)cc1,4%,38%[activator],4%,-12%,3%,-4.3%,8%,?
O=C(CNS(=O)(=O)c1ccccc1F)Nc1ccc(N2CCOCC2)cc1,-16%,2%,7%,20%,8%,6.2%,?,?
Cc1cccc(C)c1OC(=O)c1ccccc1,11%,11%,/,-16%[46.1 µM],/,/,/,-5%[46.1 µM]
CCN(CC)c1cc2c(cc1F)c(=O)c(S(=O)(=O)c1ccccc1)cn2C,/,-10%,-5%,-5%[46.1 µM],/,-6.0%,/,/
CC1(C)Cn2c(nnc2-c2ccccc2)S1,16%,23%,7%,3%,-7%,8.1%,4%,?
CN1CCN(C(=S)C(=O)NCc2ccccc2)CC1,26%,2%,/,-2%,0%,/,6%,?
COc1ccccc1N(CC(=O)NCc1ccco1)C(=O)CCC(=O)Nc1ccccn1,1%,10%,/,/,-11%,/,4%,4%[46.1 µM]
COc1cc(NC(=O)Cn2nc(Cc3cccnc3)c3ccccc3c2=O)cc(OC)c1OC,6%,-20%&-17%,1%&-2%,13%[46.1 µM],8%,-0.6%&0.9%,-9%,-5%[46.1 µM]
O=C(NC(NC(=S)Nc1ccccc1C(=O)O)C(Cl)(Cl)Cl)c1ccccc1 (stereo not given),-6%,3%,/,-8%,-1%,/,/,-2%[46.1 µM]
Oc1c(Cl)cc(Cl)c2c1NCCC2,?,-17%,-13%,-10%,-1%,-8.6%,-50%,10%
Cc1ccccc1C(=O)NCC(=O)OC1CCCCC1=O (stereo not given),-15%,-13%,/,4%,2%,/,/,-24%
O=C(NCCc1ccc(Cl)cc1)C1CCCN1C(=O)Nc1ccccc1 (stereo not given),-14%,-2%,/,/,-4%,/,-3%,/
COc1ccc(NC(=S)c2ccccc2)cc1,-16%,19%,-3%,?,-16%,-4.7%,19%,?
CCSc1nc(C)c(CC)c(C)c1C(N)=O,2%,-4%,5%,2%,6%,2.8%,1%,2%[46.1 µM]
Cc1ncsc1CCCl,/,1%,5%,17%,/,-5.1%,/,38%&38%&38%
CCn1c(SCC(=O)Nc2nc3ccc(OC)cc3s2)nc2c1c(=O)n(C)c(=O)n2C,-7%,?,?,-42%,5%,-3.6%,9%,?
COc1ccc(CCCc2n[nH]c(=S)o2)cc1C,-5%,7%,/,19%[46.1 µM],2%,/,/,?
NC(=S)NN=C1c2ccccc2-c2cc(Br)ccc21,12%,?,/,-12%,/,/,/,?
O=C(CSCC(=O)N1CCOCC1)Nc1ccccc1,-7%,-1%,-8%,9%,4%,3.5%,0%,-3%[46.1 µM]
O=C(N/C(=C\c1ccc([N+](=O)[O-])cc1)C(=O)N1CCOCC1)c1cccc(Br)c1,-5%,44%[activator],/,/,-3%,/,-9%,/
Cc1ccccc1NC(=O)Nc1csc2c1CCCC2,/,36%[activator],5%,/,/,-7.8%,/,-8%[46.1 µM]
COc1ccc(/C=N/NC(=O)CNC(=O)c2ccncc2)cc1,0%,5%,/,3%,1%,/,-1%,-7%[46.1 µM]
CCOC(=O)C1CCN(S(=O)(=O)c2ccc(Br)c(OCC)c2)CC1,17%,?,5%,?,-4%,-10%,-6%,?
COc1ccc(/C(C)=N/NC(=O)CNC(=O)/C=C\c2ccccc2OC)c(OC)c1,5%,-14%,/,/,-4%,/,-8%,/
Cc1c(S(=O)(=O)N2CCCC(C)C2)c(=O)n(C)c(=O)n1C (stereo not given),0%,-10%,/,-6%,-6%,/,/,13%[46.1 µM]
CCNc1nc(NCC)nc(OCC(=O)O)n1,-2%,-6%,/,9%,-1%,/,1%,3%[46.1 µM]
CNC(=O)c1csc(Cc2c(Cl)sc3ccc(Cl)cc23)n1,-3%,-13%,/,/,-13%,/,-76%,/
Cc1c(NC(=O)C2CCCN2S(=O)(=O)c2cccc3nsnc23)cccc1C(=O)O (stereo not given),9%,-9%,1%,/,7%,2.8%,-6%,0%
CCCCC(=O)Nc1ccc(C(=O)N2CCN(C)CC2)cc1,-6%,8%,-2%,13%,0%,13%,-10%,?
CC(=O)Oc1cccc(NC(=O)c2cccc(C(=O)Nc3cccc(OC(C)=O)c3)c2)c1,2%,-11%,/,/,1%,/,6%,/
COc1ccc(C(=O)N2CCN(C(=O)c3ccc(-c4ccccc4)cc3)CC2)cc1OC,-12%,-24%,/,?,0%,/,-3%,?
CCOC(=O)C1=C(c2ccccc2)NC(=S)NC1c1cc([N+](=O)[O-])ccc1OC (stereo not given),-11%,-6%,25µM*,-7%,0%,0.4%,7%,-5%[46.1 µM]
COC(=O)c1ccccc1NC(=O)CSCC(=O)Nc1ccc(F)cc1,-8%,1%,-4%,-3%,6%,3.6%,-21%,3%
COc1cc(OC)c(NC(=O)c2c(C)oc3nc(C)nc(N4CCOCC4)c23)cc1Cl,/,10%,-9%,?,/,0.4%,/,/
COc1cc(/C=C2\CCC(C3CCCC3)C2=O)ccc1OC(C)C (stereo not given),9%,36%[activator],/,17%[46.1 µM],-1%,/,-2%,20%[46.1 µM]
CCN1CCN(C(=O)/C=C/c2ccc(OC)cc2)CC1,10%,-8%,/,-4%[46.1 µM],10%,/,-6%,14%[46.1 µM]
COc1ccc(CN(C)C(=O)c2ccc(Oc3ccccc3)cc2)cc1F,0%,-10%,/,?,-16%,/,-18%,?
Cc1cccc(C)c1NC(=O)Cn1c(=O)n(CCCS(=O)(=O)C2CCCCC2)c(=O)c2ccccc21,/,-14%,-2%,1%[46.1 µM],/,-1.1%,/,2%[46.1 µM]
CCOC(=O)COc1ccc2c(C)cc(=O)oc2c1C(=O)c1ccccc1,7%,24%,/,6%,0%,/,/,11%[46.1 µM]
CCCCc1ccc(-n2nc3cc(C)c(NC(=O)c4ccc(C#N)cc4F)cc3n2)cc1,/,-9%,-8%,10%[46.1 µM],/,0.7%,/,-1%[46.1 µM]
O=C(Cn1nnc2ccccc2c1=O)N[C@@H](Cc1c[nH]c2ccccc12)C(=O)O,9%,-2%,-4%,0%,-11%,-6.1%,16%,32%
Cc1ccc(-n2c(C)n[nH]c2=S)cc1,0%,/,10%,/,-9%,2.5%,0%,/
COc1ccc(CNC(=O)C2CCN(c3nc4ccc(C)cc4[nH]3)CC2)cc1,/,-4%,-13%,13%[46.1 µM],/,-2.7%,/,/
COc1cccc(CNC(=O)CN2C(=O)CSc3ccc(S(=O)(=O)N4CCOCC4)cc32)c1,-10%,-5%,/,/,16%,/,-15%,/
O=C1C(=O)N(CCO)C(c2cccc(F)c2)/C1=C(\O)c1ccc(Cl)cc1 (stereo not given),4%,-16%,-15%,4%,1%,-5.0%,3%,28%
Cc1ccc(NC(=O)COC(=O)c2ccc([N+](=O)[O-])o2)cc1S(=O)(=O)N1CCCCC1,3%,3%,/,-17%,-8%,/,/,?
CCc1nc2scc(-c3ccccc3)c2c(=O)n1N,-20%,-27%,3%,4%,-4%,16%,-21%,0%

# Next part.
SMILES,RE007 growth inh,StopGo reporter,Cruzain inh noDet,Lassa entry inh,SARS PLP yeast,Cruzain Triton,NS1 function inh,Marburg entry inh
CC1=C(C(=O)Nc2ccccc2C(=O)NC2CCCCC2C)SCCO1 (stereo not given),-5%,-21%,/,/,0%,/,-2%,/
O=C(Cc1ccccc1)NCC(=O)N1CCCC1,12%,1%,/,-8%,4%,/,-4%,13%[46.1 µM]
O=C(O)CC1SC(=O)N(Cc2ccccc2)C1=O (stereo not given),11%,14%,-1%,-3%,-1%,6.2%,-7%,?
COc1ccc(CCNC(=O)CN2C(=O)NC3(CCCCC3C)C2=O)cc1 (stereo not given),4%,1%,/,13%[46.1 µM],2%,/,/,-13%[46.1 µM]
O=C(c1cc2cc(F)ccc2[nH]1)N1CCCC(Nc2ccc(F)cc2)C1 (stereo not given),-8%,-3%,/,-4%,0%,/,-27%,-4%
O=C(CSc1nc2ccccc2c(=O)n1Cc1ccco1)c1ccccc1,2%,-18%,-14%,?,-5%,-2.6%,-4%,-7%&-7%

# High-throughput results as filed in PubChem.

# Compounds as they come; overall some 4.8% were active at least once.
